Bead autofluor: counter-screen for toxin protease inhibitors: compound fluorescence; AID 624483; 360,000 tested, 3.1% active; fluorescence intensity (no concentration beside the values); compound autofluorescence counterscreen, microsphere flow cytometry; stronger effect = higher value;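 active = at least 3 SD above the mean of all compounds, about 16000 in these data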;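 note: 100 nL of 1 mM stock went into each well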
The depositor's hits bear a star.

SMILES	Bead autofluor
CC1(Cc2ccc(C(F)(F)F)o2)C(=O)Nc2ccc(-c3cccc(C(F)(F)F)c3)cc21 (stereo unspecified)	3737
Cc1cc(F)ccc1S(=O)(=O)N1CCCOC1CNC(=O)C(=O)NCCc1ccco1 (stereo unspecified)	3844
CCCOc1ccc(F)cc1-c1cc(C(=O)Nc2ccc(OC)cc2OC)[nH]n1	3944
Cc1ccc(S(=O)(=O)CCC(=O)OCC(=O)Nc2sccc2C#N)cc1	3800
Cc1cccc(CN2[C@H](CO)C=CS2(=O)=O)c1	6495
COc1ccc(CN2C(=O)CCC2(C)c2nnnn2Cc2ccccc2)cc1 (stereo unspecified)	4387
COC(=O)c1ccc(N2C(c3cc(OC)cc(OC)c3)=Cc3ccc(-c4ccc(C(N)=O)cc4)cc3C2CC(=O)C2CC2)cc1 (stereo unspecified)	4541
COC(=O)c1ccc2nc(-c3ccc(F)cc3)c(Cc3ccc(OC)cc3C)n2c1	4590

Structures listed so far that contain a halogen (four):
SMILES	Bead autofluor
CC1(Cc2ccc(C(F)(F)F)o2)C(=O)Nc2ccc(-c3cccc(C(F)(F)F)c3)cc21 (stereo unspecified)	3737
Cc1cc(F)ccc1S(=O)(=O)N1CCCOC1CNC(=O)C(=O)NCCc1ccco1 (stereo unspecified)	3844
CCCOc1ccc(F)cc1-c1cc(C(=O)Nc2ccc(OC)cc2OC)[nH]n1	3944
COC(=O)c1ccc2nc(-c3ccc(F)cc3)c(Cc3ccc(OC)cc3C)n2c1	4590

Of the compounds above, these contain nitrogen in an aromatic ring:
SMILES	Bead autofluor
CCCOc1ccc(F)cc1-c1cc(C(=O)Nc2ccc(OC)cc2OC)[nH]n1	3944
COc1ccc(CN2C(=O)CCC2(C)c2nnnn2Cc2ccccc2)cc1 (stereo unspecified)	4387
COC(=O)c1ccc2nc(-c3ccc(F)cc3)c(Cc3ccc(OC)cc3C)n2c1	4590

The list goes on:
SMILES	Bead autofluor
C[C@@H]1CN([C@@H](C)CO)C(=O)CCCn2nncc2CO[C@@H]1CN(C)C(=O)Nc1cccc(C(F)(F)F)c1	3044
O=C1CCCC2=C1C1(CCCC1)N=C(Nc1nc3ccccc3o1)N2	3903
OC[C@@H]1CN(Cc2ccc(F)cc2)C[C@H](n2cnc3c(NCc4ccncc4)ncnc32)O1	3530
O=C(NCc1cccnc1)c1ccc2sc([C@H]3C[C@H](O)[C@@H](CO)O3)nc2c1	3908
COc1ccc(Br)c(Cn2c(C)c(C(=O)NCc3ccc4c(c3)OCCO4)sc2=O)c1	5664
O=C(COC(=O)c1c[nH]c2ccccc12)NCc1ccccc1	3003
COC(=O)[C@@]1(Cc2ccc(F)cc2)[C@H]2c3cc(C(=O)N4CCCC4)n(CCc4ccc(OC)c(Br)c4)c3C[C@H]2CN1C(=O)c1ccccc1	4360
FC(F)(F)c1cc(Cl)c2nc(-c3ccccc3)c(Cc3cccc(Cl)c3)n2c1	7070
CCOC(=O)CC(=O)Nc1cc2ccc(OC)c(OC)c2cc1C(=O)OCC	3508
O=C(NC1CC1)c1ccc2nc([C@@H]3O[C@H](CO)[C@H](O)[C@H](O)[C@H]3O)[nH]c2c1	2958
C[C@@H](c1ccccc1)N1C[C@H](COCc2ccccc2)Oc2cc(N3CCC[C@@H]3CO)ccc2S1(=O)=O	6895
NCc1csc(Nc2nncc3ccccc23)n1	3094
N#C/C(=C\c1cccn1S(=O)(=O)c1cccc([N+](=O)[O-])c1)S(=O)(=O)c1ccc(F)cc1	3284
Cc1ccc(C(=O)NCCc2nnc3ccc(SCC(=O)Nc4nnc(C)s4)nn23)cc1	2998
C[C@H](NC(=O)C1CCN(S(=O)(=O)c2ccccc2)CC1)C(=O)NCc1ccncc1	4186
Nc1ccn([C@@H]2O[C@H](C(=O)NCC(F)(F)F)[C@@H](O)[C@H]2O)c(=O)n1	5444
O=C(NCc1nnnn1-c1ccc(F)cc1)C(=O)c1c[nH]c2ccccc12	3714
COc1cccc(C(C)(O)c2nc(-c3cc(F)cc(F)c3)cs2)c1 (stereo unspecified)	3681
CC(C)C1C(=O)N(Cc2cn(CCC3OCCO3)nn2)CCS(=O)(=O)N1Cc1ccc(-c2ccc(Cl)c(Cl)c2)cc1 (stereo unspecified)	2990
CCOc1cccc(CN2CCC(Oc3ccc(C(=O)N4CCCC4)cc3)CC2)c1O	3606
CSc1cccc(NC(=O)C2CCCN(S(C)(=O)=O)C2)c1 (stereo unspecified)	4061
COc1ccccc1-c1csc(C(NC(C)=O)c2ccccc2)n1 (stereo unspecified)	3414
COc1cccc(NC(=O)C2(C)CCN2C(=O)CC2CC2)c1 (stereo unspecified)	3457
CCOC(=O)C1=CC[C@@H](c2ccccc2)N(S(=O)(=O)c2ccc(C)cc2)[C@H]1C	4321
COc1ccc(-n2nnnc2C(c2ccccc2OC(F)(F)F)N2CCC3(CC2)C(=O)NCN3c2ccccc2)cc1 (stereo unspecified)	5827
COc1ccccc1NC(=O)N(C)C[C@@H]1OCc2cnnn2CCCC(=O)N([C@@H](C)CO)C[C@@H]1C	3704
CC(C)NC(=O)N(C)C[C@@H]1OCc2ccccc2-c2c(n(C)c3ccccc23)C(=O)N([C@@H](C)CO)C[C@@H]1C	4316
CN(C)C(CNC(=O)c1cc(Br)c(Br)s1)c1ccco1 (stereo unspecified)	4109
C[C@@H]1CN([C@H](C)CO)C(=O)CCCn2nncc2CO[C@H]1CN(C)C(=O)Oc1ccccc1	3598
Cc1ccc(NC(=O)C2(C)CCN2C(=O)Cc2ccc(C(C)C)cc2)cc1 (stereo unspecified)	3442
C[C@@H]1CN([C@H](C)CO)C(=O)CCCn2nncc2CO[C@@H]1CN(C)C(=O)Cc1ccccc1	3716
CCCCNC(=O)C1(C)CCN1C(=O)c1ccc(F)cc1Cl (stereo unspecified)	3513
COc1cc2nc3n(c(=O)c2cc1OC)-c1cc2ccccc2cc1C(=O)NC3Cc1ccccc1 (stereo unspecified)	3405
Cn1c(=O)c2cc(NC(=O)CCc3cccnc3)ccc2n1Cc1cccc(C(F)(F)F)c1	4306
Cc1ccc(NC(=O)CSc2nnc(NC3CC3)s2)cc1S(=O)(=O)N1CCOCC1	3443
COc1ccc2c(c1)CCC1(C)CC(=O)C(Br)=C21 (stereo unspecified)	2801
O=C(Nc1cccc2ccccc12)c1ccco1	5389
CC(=O)c1cccc(OCc2cc(C(=O)N(C)Cc3nccs3)no2)c1	3906
CC(C)NC(=O)N(C)C[C@H]1Oc2cc(Br)ccc2S(=O)(=O)N([C@H](C)CO)C[C@H]1C	3831
CS(=O)(=O)/C(C#N)=C/c1cccn1S(=O)(=O)c1cccc2ccccc12	3607
CC(=O)c1ccc(Nc2nc(C(N)Cc3ccc(N)cc3)cs2)cc1 (stereo unspecified)	3911
Cc1ccc(NC(=O)Cn2sc3ccccc3c2=O)cc1	3784
Cc1cc(F)ccc1-c1cc(C(=O)NCc2cc(C(F)(F)F)cc(C(F)(F)F)c2)[nH]n1	3920
COc1ccc(CN2C(=O)C(CC(=O)NCCCN(C)C)CC(C(=O)N3CCCCCC3)=C2C)cc1 (stereo unspecified)	6179
COc1cc(-c2coc3c(C(=O)Nc4ccc(C(C)C)cc4)cccc23)ccc1O	2751
O=C(C[C@@H]1C[C@@H]2c3cc(NC(=O)C4CCOCC4)ccc3O[C@@H]2[C@H](CO)O1)NCc1ccccn1	3424
CC1(C(=O)NCCC#N)CCN1C(=O)c1ccccc1CCc1ccccc1 (stereo unspecified)	3576
COc1ccc(NC(=O)C[C@H]2C(=O)N(c3ccc(OC)cc3)C[C@@H]2CSC)cc1	3766

Remaining list, next part:
SMILES,Bead autofluor
COc1ccc(S(=O)(=O)NC(=O)C2(C)CCN2C(=O)CCC2CCCC2)cc1OC (stereo unspecified),3794
CC(C)(C)c1ccc(-n2ncc3c2CCCC3NC(=O)CCC2=NNC(=O)CC2)cc1 (stereo unspecified),4150
CCCCn1nnnc1C(c1ccccc1)N1CCN(c2ccccn2)CC1 (stereo unspecified),5590
CCCNC(=O)C1(C)CCCN(C(=O)c2ccc(C)c(F)c2)C1 (stereo unspecified),3902
O=C(OCC(=O)N1CCC(Cc2ccccc2)CC1)c1ccc(O)cc1,3761
O=C(Nc1cccc(Cl)c1)c1csc([C@@H]2C[C@H](O)[C@@H](CO)O2)n1,2988
Cc1ccc(Cc2c(-c3ccc(Cl)cc3)nc3c4ccccc4ccn23)cc1,4993
COc1ccc(NC(=O)Nc2ccc3c(c2)C(=O)N([C@H](C)CO)C[C@@H](C)[C@@H](CN(C)C(=O)C2CCCCC2)OCCCC[C@H](C)O3)cc1,3483
C#CCNC(=O)C[C@@H]1C[C@@]2(C(=O)OC)CCCCC=C2N(Cc2ccco2)C1=O,5827
Cc1cc(Br)cn2c(Cc3ccccc3)c(-c3ccco3)nc12,5719
CSc1ccc(Cn2c(C)c(C(=O)NCCC#N)sc2=O)cc1,4032
C[C@H]1CN([C@@H](C)CO)C(=O)CCCn2cc(nn2)CO[C@@H]1CN(C)C(=O)Nc1ccccc1,2953
COc1ccc(C=C(C(C)=O)C(=O)c2ccccc2)cc1,5851
Nc1nc(-c2ccccc2)nc2nonc12,4032
CCCCN1C(=O)C(CC(=O)NCCc2ccccn2)CC(C(=O)N2CCCCCC2)=C1C (stereo unspecified),5676
COCCCn1c(C(=O)NC2CCCCC2)cc2c(=O)n3cccc(C)c3nc21,3745
O=C(Nc1ccccc1)c1cc(C2CCCN(C(=O)CCc3ccccc3)C2)on1 (stereo unspecified),3641
CC1Cc2[nH][nH]c(=O)c2C(C2CC2)O1 (stereo unspecified),6380
CCc1nc2ccc(C(=O)Nc3cc(-c4ccccc4)ccc3OC)cn2c1N(C)C(=O)c1cccc(OC)c1,3697
CC1(Oc2cccc(Cl)c2)CCN(Cc2ccc(OC(F)(F)F)cc2)C1 (stereo unspecified),3238
Cc1cc(C(O)c2ncc(-c3cccc4ccccc34)[nH]2)ccc1F (stereo unspecified),4071
O=C(NCc1ccccn1)c1[nH]c(C(F)(F)F)nc1-c1ccccc1,6021
CC1OC(C2CCCCC2)Cc2[nH]c(=S)[nH]c(=O)c21 (stereo unspecified),4272
COc1cc(C(O)c2nc(/C=C/c3ccc(C(F)(F)F)cc3)cs2)ccc1F (stereo unspecified),3615
CCN1C(=O)[C@@H]2[C@@H]3CN(S(=O)(=O)c4ccc(C)cc4)[C@@H](c4ccccc4Cl)[C@@H]3C(=O)C[C@@H]2C1=O,5594
CCCCNC(=O)c1ccc2nc(CC)c(N(C)Cc3ccc(OC)cc3)n2c1,2772
c1ccc(COc2ccc(-c3cc4nc(NCCCn5ccnc5)ccn4n3)cc2)cc1,4934
CC1(C(=O)NCc2ccc3c(c2)OCO3)CCN1C(=O)Cc1cccs1 (stereo unspecified),3671
Cc1ccc([C@@H]2C[C@H]3[C@@H](CN2S(=O)(=O)c2ccc(C)cc2)C(=O)C[C@@H](c2ccccc2)N3S(=O)(=O)c2ccc(C)cc2)cc1,3427
CCCOc1ccc(F)cc1-c1cc(C(=O)Nc2ccc(C(C)C)cc2)[nH]n1,3061
CC1(c2nc3ccccc3[nH]2)CCC(=O)N1Cc1ccc(F)cc1 (stereo unspecified),5651
O=C(Nc1ccc(Cl)cc1C(=O)c1ccccn1)c1ccccc1,3788
Cn1ccc2c(-c3ccc(F)nc3)cc3c(c21)C1CCC3O1 (stereo unspecified),5659
CCCOc1ccc(F)cc1-c1cc(C(=O)Nc2ccc(F)c(Cl)c2)[nH]n1,3799
O=C(Nc1ccc(Br)cc1Br)Nc1cccc2[nH]c([C@@H]3O[C@H](CO)[C@@H](O)[C@H](O)[C@H]3O)nc12,6054
O=C(Nc1cccc(-n2cnnn2)c1)C1CCCN(C(=O)Cc2cccc(Cl)c2)C1 (stereo unspecified),3929
OC(c1ccccc1)c1nc(-c2cccs2)cs1 (stereo unspecified),3553
O=C(COc1cccc(Br)c1)N/N=C/c1ccc2c(c1)OCCO2,2941
CCOC(=O)C(=C1Nc2ccccc2N1)n1c(-c2cccnc2)nc2ccccc21,6522
CSC[C@H]1CN(CCc2ccccc2)C(=O)[C@@H]1CC(=O)Nc1ccccc1,3708

Three structures already listed, sorted by heavy-atom count, high to low:
SMILES,Bead autofluor
Cc1cc(C(O)c2ncc(-c3cccc4ccccc34)[nH]2)ccc1F (stereo unspecified),4071
O=C(COc1cccc(Br)c1)N/N=C/c1ccc2c(c1)OCCO2,2941
OC(c1ccccc1)c1nc(-c2cccs2)cs1 (stereo unspecified),3553

Carrying on:
SMILES,Bead autofluor
Cn1nc(C(C)(C)C)cc1N1C(=O)CCC1(C)C(=O)NC1CCCC1 (stereo unspecified),6002
C[C@@H]1CN([C@@H](C)CO)C(=O)c2cc(Br)cnc2O[C@H]1CN(C)C(=O)C1CC1,3347
COc1cc(-c2cc(NC(C)=O)c3ncc(-c4ccccc4)n3c2)cc(OC)c1OC,3782
COc1ccc(Cl)cc1Cn1c(C)c(C(=O)NCc2cccc(C(F)(F)F)c2)sc1=O,5376
CC1(C(=O)Nc2cccc3cccnc23)CCN1Cc1ccccc1OC(F)F (stereo unspecified),3795
COCCN(CCOC)Cc1cc(=O)oc2ccccc12,5990
COC(=O)c1c(-c2ccc(N(C)C)cc2)oc2c1C(OC)CCC2 (stereo unspecified),5778
CC(C)N(c1ccccc1)c1ccc(NC(=O)[C@@H]2O[C@H](CO)[C@@H](O)[C@H]2O)cc1,2725
CCOC(=O)[C@]12CCCC=C1N(Cc1ccco1)C(=O)[C@H](CC(=O)NCC1CCCCC1)C2,4227
COc1cccc(-c2cnc(C(O)c3ccc(C)c(F)c3)[nH]2)c1 (stereo unspecified),4504
O[C@@H]1C[C@H](c2ccccc2)N(CC2CCCCC2)C[C@H]1n1cc(C2CC2)nn1,3690
O=C(c1ccc(C(F)(F)F)cc1)N1CCC(=O)N([C@H](COCc2ccc(C(F)(F)F)cc2)Cc2ccccc2)CC1,5864
Cc1ccccc1NC(=O)COC(=O)c1c(C)nn(-c2ccccc2)c1C,4220

Compound activity: PubChem BioAssay, NMMLSC

An excerpt; the hit share may differ from the screen's.
